# Source: PubChem
# Calb biofilm kill: mixtures killing C. albicans biofilm. 120,000 compounds, 0.02% hits. inhibition, % at 7.6 µM. C. albicans biofilm persisters + clotrimazole, fluorescence viability; primary screen in compound mixtures of four per well;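 active means inhibition above 30.3% in the primary screen of four-compound pools, then above 30% when the compound was retested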;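 further: compounds exposed to preformed 24 h biofilms for 48 h; the number belongs to the whole pool; some results filed as inactive read as strong as hits; inactives centre near 12; 0% = biofilm with clotrimazole alone and 100% = kill control; retested singly at about 60 µM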
#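 Incubation: 24 h biofilm formation, then 48 h compound exposure, 37 °C | Material: C. albicans biofilms | Buffer or medium: RPMI/MOPS medium, pH 7.0 | Measured by: 2-h Alamar Blue fluorescence, 535/590 nm excitation/emission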
# * hit, by the source's call.
structure	Calb biofilm kill
S=c1[nH]nc(Cn2nnc3ccccc32)n1-c1ccc(Cl)cc1	15
O=C(Nc1ccc(-c2nc3cccnc3s2)cc1)c1cccnc1Cl	15
N#CCO/N=C/C(=O)Nc1ccc(F)cc1F	9
Cc1cc(C)cc(NC(=S)NC2CC3CCCC(C2)N3CC(C)C)c1 (stereo unspecified)	22
COCCCN1CN(Cc2ccco2)CNC1=S	24
Nc1nnc(CCS(=O)(=O)c2ccc(Br)cc2)s1	8
Cc1c(NC(=O)c2c(O)c3ccccc3n(C)c2=O)c(=O)n(-c2ccccc2)n1C	10
O=C1CCCN1c1ccc(S(=O)(=O)NCCOc2ccccc2)cc1	2
Cc1cc(C)c(-c2c(O)c3cnn(-c4ccccc4)c3[nH]c2=O)c(C)c1	12
COCCCn1c(=O)/c(=C\c2ccccc2OC(C)C)s/c1=C(/C#N)C(=O)Nc1ccc(C(=O)O)cc1	10
CCn1cc(C(=O)NP(=O)(Nc2ccc(C)cc2)Nc2ccc(C)cc2)c2ccccc21	12
COc1ccc(CC(NC(C)=O)C(=O)NC2CCN(C(=O)c3ccc([N+](=O)[O-])cc3)CC2)cc1OC (stereo unspecified)	20

# (listing goes on)
structure	Calb biofilm kill
CSc1nsc(SCC(=O)Nc2nncs2)n1	20
c1ccc(CNc2nc(-c3cccs3)nc3ccccc23)cc1	17
COc1ccc(C(=O)O/N=C(\N)c2ccccn2)c(OC)c1	20
COc1ccc(-c2cc(C(F)(F)F)nc(SCC(=O)N(C)Cc3cn(C)nc3C)n2)cc1OC	7
O=C(CCCN1C(=O)/C(=C/c2ccco2)SC1=S)Nc1ccccc1	9
O=C(Nc1ccccc1)c1ccccc1OCc1cccc([N+](=O)[O-])c1	7
COC(=O)CCCC1=CC2=C(c3ccccc3)C(=O)C(C)(OC(=O)C3CCCC3)C(=O)C2=CN1Cc1ccc2c(c1)OCO2 (stereo unspecified)	20
CCOC(=O)c1c(-c2ccccc2)csc1NC(=O)CCN1C(=O)c2ccccc2C1=O	12
COc1cc(/C=C/C(=O)N2CCOCC2)ccc1OCc1ccccc1	10
CC(C)c1ccccc1NC(=O)CNCCc1ccc(C(F)(F)F)cc1	-10
COc1ccc(NC(=O)N/C=C/c2ccccc2)cc1	2
Cc1nnc(SCC(=O)Nc2cccc(S(=O)(=O)N(C)c3ccccc3)c2)s1	11

# (list continues)
structure	Calb biofilm kill
O=C(Nc1c[nH]c(=O)[nH]c1=O)c1ccc2c(c1)C(=O)N(c1cccc([N+](=O)[O-])c1)C2=O	6
Oc1ccccc1Nc1nc(NCc2ccco2)c2ccccc2n1	23
C=CCNc1nc2ccccc2c(=O)[nH]1	8
COc1ccc(C(=O)/C(=C\c2sccc2C)c2nc3ccccc3o2)cc1	15
C=CC(=O)NC(NC(=O)C=C)c1ccccc1F	16
COc1ccccc1N1CCN(C(=O)c2cccc(Oc3ccccc3)c2)CC1	14
O=C(/C=C/c1cccc([N+](=O)[O-])c1)c1cccs1	10
CCc1ccc(NC(=O)c2ccc(F)c(S(=O)(=O)NCC3COc4ccccc4O3)c2)cc1 (stereo unspecified)	15
CCNC(=O)NC(=O)COC(=O)CCc1nc(=O)c2ccccc2n1C	24
CCNC(=O)CCSc1nc(C)cc(C)n1	7
O=c1c(S(=O)(=O)c2ccc(Cl)cc2)cn(Cc2ccccc2)c2ccc(F)cc12	17
C/C(=N\NC(=O)C(=O)Nc1cccc(Cl)c1)c1ccncc1	1

# Going on with the list:
structure	Calb biofilm kill
Cc1ccc(NC(=O)c2cc(S(=O)(=O)NCCc3ccccc3)ccc2F)cc1Cl	14
Clc1cccc(OCCN2CCN(CCOc3cccc(Cl)c3)CC2)c1	20
CCC(C)SCC(=O)Nc1ccc(S(=O)(=O)N2CCOCC2)cc1OC (stereo unspecified)	14
COc1ccc(NC(=O)/C(Cl)=C(/Cl)S(=O)Cc2ccccc2Cl)cn1 (stereo unspecified)	19
CCOC(=O)c1c(CNc2ccncc2)n(C)c2cc(Br)c(O)cc12	2
CCN1CCN(c2ccc(NC(=O)c3ccc(F)cc3)cc2Cl)CC1	18
CC(Sc1nc(-c2ccc(F)cc2)cs1)C(=O)Nc1ccc(Cl)cn1 (stereo unspecified)	9
O=C(NN1CCOCC1)c1cnn2c(C(F)F)cc(-c3ccccc3)nc12	1
S=c1[nH]ncn2c1cc1oc3ccccc3c12	13
Cc1nn(CC(=O)Nc2nnc(C(C)C)s2)c(=O)c2ccccc12	16
O=C(CSc1nnc(Cc2ccccc2)o1)N1CCCC1	3
C/C(=N\NC(=O)C(C)Nc1cccc(Cl)c1)c1ccc([N+](=O)[O-])cc1 (stereo unspecified)	12

# Following part
structure	Calb biofilm kill
S=C(NCc1ccco1)Nc1ccc(Cl)cc1Cl	17
Nc1ccn(Cc2ccccc2F)n1	-3
O=C(Nn1c(Cc2ccccc2)nc2ccccc2c1=O)c1c(O)c2cccc3c2n(c1=O)CCC3	12
NC(=O)CN(N=Nc1cccc([N+](=O)[O-])c1)c1cccc([N+](=O)[O-])c1	12
O=C(Nc1ccccn1)C(=O)Nc1ccccn1	29
Cc1cccc(-c2n[nH]c(=S)n2/N=C/c2ccc(C)o2)c1	9
CS(=O)(=O)N(CC(=O)N1CCOCC1)c1cccc([N+](=O)[O-])c1	17
CS(=O)(=O)c1ccc(Cl)c(NC(=O)c2ccc3ccccc3c2)c1	4
O=C(O)CCCCCN1C(=O)C(O)=C(C(=O)/C=C/c2ccccc2)C1c1cccc([N+](=O)[O-])c1 (stereo unspecified)	15
N#CC1=C(N)OC2=C(C(=O)CCC2)C12CCN(C(=O)OCc1ccccc1)CC2	12
COc1ccc(-c2csc3nc(C)nc(N4CCN(C(C)=O)CC4)c23)cc1OC	7
COc1ccc(C2Nc3ccccc3C(=O)N2O)cc1CN1CCOCC1 (stereo unspecified)	13

# By substructure, the entries above containing bromine (2)
structure	Calb biofilm kill
Nc1nnc(CCS(=O)(=O)c2ccc(Br)cc2)s1	8
CCOC(=O)c1c(CNc2ccncc2)n(C)c2cc(Br)c(O)cc12	2

# Laid out differently: results already given
S=C(NCc1ccco1)Nc1ccc(Cl)cc1Cl
  Calb biofilm kill: 17
Nc1ccn(Cc2ccccc2F)n1
  Calb biofilm kill: -3
O=C(Nn1c(Cc2ccccc2)nc2ccccc2c1=O)c1c(O)c2cccc3c2n(c1=O)CCC3
  Calb biofilm kill: 12
NC(=O)CN(N=Nc1cccc([N+](=O)[O-])c1)c1cccc([N+](=O)[O-])c1
  Calb biofilm kill: 12

# (cont.)
structure	Calb biofilm kill
O=C(O)CSC(=S)N1CCCC1	28
Cc1sc2nc(COC(=O)c3ccc(N4CCCC4)c([N+](=O)[O-])c3)[nH]c(=O)c2c1C	9
COc1ccc(/C=N/N(C)c2cc(=O)n(C)c(=O)[nH]2)cc1OC	15
O=Nc1c(O)[nH]c2ccc(F)cc12	19
CC(=O)C1=C(C)NC(SCc2cccc3ccccc23)=C(C#N)C1c1ccco1 (stereo unspecified)	16
CN(Cc1cccnc1)C(=O)CC1C(=O)NCCN1Cc1ccc(-c2ccccc2)cc1 (stereo unspecified)	0
COc1ccc(-n2nnnc2SCC(=O)NCc2cccs2)cc1	10
CCOc1ccc(-n2c(C)cc(/C=N/Nc3nc(C)cc(=O)[nH]3)c2C)cc1	17
COC(=O)CSc1nccc(-c2ccc(F)cc2)c1C#N	12
COc1ccc(NS(=O)(=O)c2ccc(Cl)c(C(=O)O)c2)cc1S(=O)(=O)N1CCCCC1	11
COc1ccccc1CN(C)C(=O)C1(c2ccc(Cl)cc2)CC1	17
O=C1C(=O)N(Cc2cccc([N+](=O)[O-])c2)c2ccccc21	8

# More compounds follow:
structure	Calb biofilm kill
O=C(CSc1nc(-c2ccccc2Cl)ns1)NCc1ccc2c(c1)OCO2	8
Cc1ccc(CNC(=O)/C=C/C(=O)O)cc1	7
COc1ccccc1/C=N/NC(=O)CSc1cc(C)nc2ccccc12	5
O=C(NCc1ccc(-c2nc3ccccc3s2)cc1)c1cc2ccccc2o1	9
Fc1cc(NC(=S)NCc2ccc(CNC(=S)Nc3ccc(Cl)c(F)c3)cc2)ccc1Cl	20
COc1ccc(CN2C(=O)c3c(c(C)n(C)c3C)C2C(=O)NC2CCC(C)CC2)cc1 (stereo unspecified)	4
O=[N+]([O-])c1ccc(OCC(O)CN(C2CCCCC2)C2CCCCC2)cc1 (stereo unspecified)	0
Cc1cccc(Nc2nnc(SCC(=O)NC(=O)Nc3ccc4c(c3)OCCO4)s2)c1	0
CN(C)C(=O)COc1ncnc2scc(-c3ccc(F)cc3)c12	-2
c1ccc2c(Nc3nncs3)c3ccccc3nc2c1	16
COc1cc(-c2cc(-c3ccc(O)cc3)nc(N)c2C#N)ccc1O	4
O=C(O)c1cc2ncc(-c3[nH]ncc3[N+](=O)[O-])cn2n1	14

# Following part.
structure	Calb biofilm kill
Nc1c(C(=O)c2ccco2)oc2ccccc12	10
O=C(CN1CCN(CC(=O)Nc2ccccc2F)CC1)Nc1ccc2c(c1)OCCO2	17
O=C(CSc1nc2ccc(Cl)cc2[nH]1)NCCc1ccccc1	8
O=C(CCc1n[nH]c(=O)[nH]c1=O)N/N=C/c1ccc(Br)o1	11
CCOC(=O)N1CCC(N2C(=O)c3ccccc3C2Nc2ccc(S(=O)(=O)N3CCOCC3)cc2)CC1 (stereo unspecified)	13
CCC(C)C(NC(=O)c1ccc(Cl)cc1Cl)C(=O)O (stereo unspecified)	9
CCNc1ccc(C(=O)O)cc1N	11
O=C(COc1ccccc1F)N1CCN(S(=O)(=O)/C=C/c2ccccc2)CC1	20
COc1ccccc1C(=O)OCn1nnc2ccccc2c1=O	10
Cc1cc(C)n(CCCN2C(=O)c3cccc4cccc(c34)C2=O)n1	15
Cn1c(=O)cc(OCCCC(=O)NCc2cccnc2)c2ccccc21	2
COc1ccc(C(=O)C2CCCN(C(=O)CCc3scnc3C)C2)c(C)c1 (stereo unspecified)	15

# Following part
structure	Calb biofilm kill
Nc1cc(S(=O)(=O)N2CCCCC2)ccc1Oc1ccccc1	11
Cc1ccc2c(c1)N(C(C)C(=O)NCc1ccc3c(c1)OCO3)C(=O)CO2 (stereo unspecified)	16
N#C/C(=C\c1cn(Cc2ccccc2F)c2ccccc12)C(=O)NCc1ccco1	20
CC(=O)c1cc(C#N)c(N(C)Cc2ccccc2)nc1C	18
CCC(CC)Nc1ccc(C(CC(N)=O)NC(=O)Cc2ccc(Br)cc2)cc1[N+](=O)[O-] (stereo unspecified)	21
CCC(C)NC(=O)CCC(=O)NNc1nc2ccccc2c2nc(C)nn12 (stereo unspecified)	17
O=C(O)CCCC(=O)Nc1ccc(-n2ccc(C(F)(F)F)n2)cc1	25
CCCCc1c(C)nc2cc(-c3ccco3)[nH]n2c1=O	16
O=C(O)c1cc([N+](=O)[O-])ccc1N1CCC(Cc2ccccc2)CC1	16
N#Cc1c(N2CCOCC2)nsc1-c1ccccc1	12
CCOc1ccc(Cc2n[nH]c(=S)n2Cc2ccccc2)cc1	12
Fc1ccc(N2CN(Cc3cccnc3)CNC2=S)cc1	22

# Brought forward from above: five entries; new compounds follow.
structure	Calb biofilm kill
CCCCc1c(C)nc2cc(-c3ccco3)[nH]n2c1=O	16
O=C(O)c1cc([N+](=O)[O-])ccc1N1CCC(Cc2ccccc2)CC1	16
N#Cc1c(N2CCOCC2)nsc1-c1ccccc1	12
CCOc1ccc(Cc2n[nH]c(=S)n2Cc2ccccc2)cc1	12
Fc1ccc(N2CN(Cc3cccnc3)CNC2=S)cc1	22
Cc1ccc(NS(=O)(=O)c2cc(C(=O)OCC(=O)NCC3CCCO3)ccc2C)cc1 (stereo unspecified)	4
CC(Oc1ccc(F)cc1)C(O)CCN(C)C (stereo unspecified)	13
O=c1ccc(Cc2ccc(Cl)cc2)n[nH]1	15
COc1ccccc1CC(=O)NNS(=O)(=O)c1ccc([N+](=O)[O-])cc1	15
c1ccc(C2=NNC(=NCc3ccc4c(c3)OCO4)SC2)cc1	18
Cc1cc(C)n(CCC(=O)N/N=C/c2ccc(O)cc2)n1	18
CN1/C(=C/C(=O)CSc2ccccc2C(=O)O)C(C)(C)c2ccccc21	32
COC(=O)/C(=C\c1ccc(O)cc1)c1nc2ccccc2[nH]1	15
O=C1Nc2ccc(Cl)cc2/C1=C/C1CC=CCC1 (stereo unspecified)	5
O=c1nc(/C=C/c2cccn2-c2ccc([N+](=O)[O-])cc2)cc(C(F)(F)F)[nH]1	9
Cc1ccc(S(=O)(=O)NC(=O)N2CCN(Cc3c(F)cccc3Cl)CC2)cc1	0
CCCS(=O)(=O)N1CCC(Cc2ccc(OC)cc2)(C(=O)OCC)CC1	8

# New compounds follow.
structure	Calb biofilm kill
O=C(Oc1ccc2c(=O)c(Oc3ccc4ccccc4c3)coc2c1)c1cccnc1	11
CC(C)(C)OC(=O)NNC(=O)c1cccs1	5
COCCNC(=O)c1nc2ccccc2s1	12
COc1ccc(CNC(=O)C/C(C)=N/NC(=O)COc2ccc(C)cc2Br)cc1	2
CCOC(=O)C1(O)CC(C)=NN1C(=O)c1cccc(Cl)c1 (stereo unspecified)	12
COc1ccc(-c2ccc(SCC(=O)c3cccs3)nn2)cc1	12
Cc1cccc(NC(=S)N2CCN(S(=O)(=O)c3cccc(F)c3)CC2)c1	15

# Some of the compounds tested, so the mix of outcomes need not match the whole.
